From PubChem
TRPML1 agonist: agonists of human TRPML1 channel; Q9GZU1; TRPML1-expressing cells, Ca2+ dye fluorescence, FDSS; host cell line not named in the record; reference of the full effect not given here; activation, % (no concentration beside the values); actives 0.12% (n = 410,000); AID 624414; in the data active = activation above about 50%; inconclusive = about 30% to 50%; inactive = below about 30%; further: 0% is about no effect; the text of the record puts the active cut at 80%
Target sequence (Q9GZU1 whole entry, looked up): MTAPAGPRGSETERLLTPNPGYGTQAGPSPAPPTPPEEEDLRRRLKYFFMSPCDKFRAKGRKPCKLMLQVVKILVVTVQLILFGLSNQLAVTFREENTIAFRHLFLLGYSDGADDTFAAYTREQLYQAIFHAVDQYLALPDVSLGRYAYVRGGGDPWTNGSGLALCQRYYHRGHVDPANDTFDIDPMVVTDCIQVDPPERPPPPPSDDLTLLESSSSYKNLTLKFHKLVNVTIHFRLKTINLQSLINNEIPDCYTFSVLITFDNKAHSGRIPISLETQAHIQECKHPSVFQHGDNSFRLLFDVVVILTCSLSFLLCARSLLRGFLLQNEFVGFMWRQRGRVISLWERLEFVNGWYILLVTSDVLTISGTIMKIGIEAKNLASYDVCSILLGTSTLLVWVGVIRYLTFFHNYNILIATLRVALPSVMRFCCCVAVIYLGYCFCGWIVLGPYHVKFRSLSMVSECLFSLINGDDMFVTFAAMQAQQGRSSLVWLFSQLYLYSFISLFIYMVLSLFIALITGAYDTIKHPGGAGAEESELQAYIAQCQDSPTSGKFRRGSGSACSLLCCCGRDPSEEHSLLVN
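Cells: TRPML1-DL, 1X Tet inducer, ~16 h at 37 degrees C/5% CO2. Dye: ABD Ca8 no-wash + quencher, 45-90 min RT. Read: 10 s baseline, compound add, 110 s agonist phase; 54-4 EC80 (4uM final), 110 s antagonist phase.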
D2 ag: agonists of human D2 dopamine receptor (beta-arrestin); DiscoveRx PathHunter D2 beta-arrestin, luminescence, 90 min; 100% = 57 uM dopamine signal; activation, % (test concentration not listed); actives 0.084% (n = 360,000); in the data active = activation above about 40%; inconclusive = about 15% to 40%; inactive = below about 15%; further: compound concentration not given in the record; the text of the record calls up to 30% inactive
Target sequence (P14416 whole entry, looked up): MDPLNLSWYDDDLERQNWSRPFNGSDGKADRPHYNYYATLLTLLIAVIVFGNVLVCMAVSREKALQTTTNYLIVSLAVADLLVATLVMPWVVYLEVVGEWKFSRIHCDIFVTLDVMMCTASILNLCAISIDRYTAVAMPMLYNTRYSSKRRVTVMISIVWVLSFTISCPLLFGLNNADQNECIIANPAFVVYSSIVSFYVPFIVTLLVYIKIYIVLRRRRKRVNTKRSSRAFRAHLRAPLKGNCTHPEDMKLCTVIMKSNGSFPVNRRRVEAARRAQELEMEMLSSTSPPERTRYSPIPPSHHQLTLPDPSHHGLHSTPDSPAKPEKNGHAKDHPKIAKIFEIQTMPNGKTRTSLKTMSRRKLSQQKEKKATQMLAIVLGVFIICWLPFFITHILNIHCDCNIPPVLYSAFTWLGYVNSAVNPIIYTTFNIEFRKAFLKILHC
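Agonist mode: compounds alone added to overnight-plated D2 PathHunter cells for 90 min at 37 C, with 57 uM final dopamine (EC100) defining full response. Beta-arrestin recruitment detected by chemiluminescent reagent, read after 1 h at ambient temperature.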
CtBP-E1A blk: inhibitors of CtBP/E1A interaction. AlphaScreen GST-E1A/His-CtBP binding, 1536-well; stronger effect = lower value; control for the full effect not named in the record. activity change, % (test concentration not listed). actives 0.49% (n = 340,000); in the data active means activity change below about -65%; inconclusive means about -30% to -65%; inactive means above about -30%; further: on the % scale 0 is the no-effect control and ±100 the full control effect; compound concentration not given in the record
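GST-E1A and His-tagged CtBP (125 nM each as 5X stock) were preincubated with pin-transferred compound for 2 h at 37 °C in the dark, then glutathione donor and nickel acceptor beads were added for 1 h before AlphaScreen reading.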
PINK1 modulator: changes PINK1 expression; Potency, µM (doses to about 76.6 µM), inactives show top-dose activation (PINK1 increase), actives largely listed as activators; PINK1 immunofluorescence, high-content cytometry, 24 h; actives 0.2% (n = 410,000); active = well fitted activation curve with a large enough effect; inconclusive = small, poorly fitted or top-dose-only effect; inactive = flat fitted curve, though single readings scatter; cell line not stated here;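 further: potency means the concentration at half of the fitted maximal effect; % of control where 0% means no effect; nearly all actives have a fitted effect of over 65% in size; a mitochondrial uncoupler was the plate control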
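Cells are seeded, rested 12 hours, then given compound at five concentrations or DMSO for 24 hours. After fixation, blocking and antibody staining, PINK1 amount and mitochondrial localization are scored; CCCP serves as control.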
TRPML1 inh: human mucolipin-1 channel inhibition. TRPML1-inducible cells, Ca2+ dye fluorescence, FDSS; stronger effect = lower value; inhibition of EC80 agonist-evoked calcium signal. actives 0.02% (n = 390,000). activity change, negative = inhibition, % (test concentration not listed); in the data active means activity change below about -50%; inconclusive means about -30% to -50%; inactive means above about -30%;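 further: stimulus is agonist 54-4 at its EC80 concentration; on the % scale 0 is the no-effect control and ±100 the full control effect; compound concentration not given in the record; the text of the record puts the active cut at -80%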
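TRPML1-DL cells, Tet-induced overnight (~16 h, 37 °C) at 1,500 cells/well, were loaded with Ca8 no-wash dye plus quencher for 45-90 min at room temperature. Compounds were pinned during FDSS kinetic reading; agonist 54-4 at EC80 (4 uM final) then added.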
Six1-Eya2 blk: blocks human Six1 binding to Eya2 | AlphaScreen GST-Six1/His-Eya2 binding, biochemical; stronger effect = lower value; control for the full effect not named in the record | activity change, % (test concentration not listed) | actives 0.56% (n = 360,000) | AID 651725; in the data active = activity change below about -65%; inconclusive = about -30% to -65%; inactive = above about -30%; further: on the % scale 0 is the no-effect control and ±100 the full control effect; compound concentration not given in the record
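Compounds are tested against tagged Six1 and Eya2 proteins bridged by glutathione donor and nickel acceptor beads; after a one-hour incubation at 37 °C without light, AlphaScreen emission is recorded.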
Starred values were filed as active, the others as inactive; . = no result given; & = joins results of further samples; [ ] = dose if it differs, or a comment.

SMILES	TRPML1 agonist	D2 ag	CtBP-E1A blk	PINK1 modulator	TRPML1 inh	Six1-Eya2 blk
CCn1cc(C(=O)NCCCN2CC(C)CC(C)C2)c(=O)c2cc(S(=O)(=O)N(C)C3CCCCC3)ccc21 (stereo not drawn)	0.3	-0.7	.	0.1%	12	4
O=C(CN1CCN(Cc2ccc(Cl)cc2)CC1)N/N=C/c1ccncc1	0.8	-1.8	-2	1.6%	5	1
CCOc1ccc(C(=O)CCC(=O)NCC(=O)OCc2ccccc2)cc1OCC	1.2	-1.1	1	9.0%	21	1
CC(C(=O)NN)c1ccc([N+](=O)[O-])cc1 (stereo not drawn)	0.2	-0.9	-6	-0.4%	4	-9
Cc1onc(C(=O)Nc2ccc3c(c2)OCO3)c1[N+](=O)[O-]	-0.8	2.3	-2	0.8%	-4	0
O=NN(CC(=O)NN=CC=Cc1ccccc1)CC(=O)NN=CC=Cc1ccccc1	-0.6	8.9	-8	4.5%	.	-5
CC(C)(C)OC(=O)C[C@H]1C/C=C\C[C@@H](CC(=O)N(CCO)Cc2ccccc2)C(=O)N[C@H](Cc2c[nH]c3ccccc23)COC1=O	-0.3	-2.7	.	4.9%	50	-14
C=CCNC(=O)c1cccc(Br)c1	-1.2	-0.6	11	3.7%	-14	3
OC(c1cccc(Cl)c1)c1ncc(-c2ccc(Oc3ccccc3)cc2)[nH]1 (stereo not drawn)	-0.7	-4.5	-11	2.9%	.	-14
COc1ccc(-c2sc3ccc(N4CCOCC4)cc3c2C#CC(C)(C)O)cc1	0.2	-0.7	-2	10%	32	-3
Cc1ccc(-c2cc(C(=O)NCCCn3ccnc3)no2)cc1	0.4	-0.9	.	0.1%	47	-7
O=C(Oc1ccc(NC2=NS(=O)(=O)c3ccccc32)cc1)c1cccnc1	-0.6	-0.5	4	4.0%	-22	6
COc1cc(CCCN2CCNC[C@@H]2Cc2ccc(O)cc2)cc(OC)c1OC	0.4	-4.9	-8	0.0%	1	-1
NS(=O)(=O)c1ccc(N2CCOCC2)c(C(=O)NCc2cccs2)c1	0.1	-1.2	-13	2.1%	29	12
CCc1nnc(NC(=O)CN2CCN(c3ccccc3OC)CC2)s1	0.9	-0.8	5	.	-4	5
CCCC1(C(=O)O)NC(c2ccccc2O)C2C(=O)N(Cc3ccccc3)C(=O)C21 (stereo not drawn)	-0.2	-2.6	0	1.6%	-6	9
COCCCNc1nc2ccccc2nc1NS(=O)(=O)c1cc(Cl)ccc1Cl	-0.7	5.4	.	2.9%	11	1
CC(=O)/C(CN1CCCCC1)=N\O	0.6	4.7	8	1.8%[38.3 µM]	0	9
CC(C)(C)c1nnc(NC(=O)CCn2cnc3ccccc3c2=O)s1	4.1	-3.9	13	-0.6%	30	7
Cc1cn2c(=O)cc(COc3cccc(NC(=O)c4ccccc4Cl)c3)nc2s1	-0.9	.	.	-0.4%	-11	.
COc1ccccc1NC(=O)c1cn(C)c(=O)c2cc(OC)c(OC)cc12	-0.7	-0.5	1	-0.6%	0	-7
O=C(Nc1cccc(S(=O)(=O)N2CCOCC2)c1)c1cn(-c2ccccc2)nc1-c1ccc(F)cc1	0.5	-4.9	-1	2.0%	0	6
Nc1nc(-c2ccccc2)cc(-c2ccccc2)n1	1.0	-4.5	-10	7.3%	-2	-1
CC(C)(C)c1ccc(Oc2ccc(NC(=O)c3ccco3)cn2)cc1	1.4	-3.9	.	2.4%	-9	-2
N#Cc1ccccc1NC(=O)COC(=O)c1ccc(S(=O)(=O)N2CCCC2)cc1	1.6	-3.7	1	-0.2%	-9	1
COc1ccc(C(=O)N2CCC2(C)C(=O)O)cc1C(F)(F)F (stereo not drawn)	-0.5	-1.8	13	0.6%	.	5
COc1ccc(C(=O)NC2=Nc3ccccc3N=C(C)C2c2ccccc2)cc1 (stereo not drawn)	1.7	-0.5	-3	2.9%	26	-2
O=[N+]([O-])c1ccc(/C=N/Nc2ncc(-c3ccccc3)cn2)cc1	-0.6	-4.1	.	2.2%	3	4
Cc1ccc(S(=O)(=O)N2CCOCC2)cc1C(=O)N1c2ccccc2Sc2ccccc21	2.2	-3.2	-12	8.3%	-2	-14
CCN(CC)S(=O)(=O)c1cc(NS(=O)(=O)c2cccc(Cl)c2)ccc1C	1.4	4.0	-2	-0.4%	33	18
CC(Sc1nc(=O)cc(N)n1CCc1ccccc1)C(=O)Nc1ccc(Cl)cc1 (stereo not drawn)	-0.2	.	.	-1.7%	2	.
Cn1c(=O)[nH]c(=O)c2c1nc(CN1CCN(c3ccccc3F)CC1)n2CCc1ccccc1	0.6	-4.0	-11	1.7%	30	-2
COc1ccc(NC(=O)c2cccc(NC3=NC4CS(=O)(=O)CC4S3)c2)cc1Cl (stereo not drawn)	-0.5	-6.4	-20	-1.3%	-3	5
CSCC[C@H](NC(=O)[C@H](Cc1ccccc1)n1c(=O)[nH]c2ccccc2c1=O)C(=O)N1CCC[C@@H]1C(=O)O	.	4.0	4	-0.5%	.	5
CCNc1nc(CC)nc2c1oc1ccccc12	2.6	-4.5	1	1.3%[38.3 µM]	-10	-3
O=C(c1ccco1)N1CCN(C(=O)c2cccc3c2C(=O)N(Cc2cccnc2)C3)CC1	0.7	-4.4	4	1.5%	-4	6
CC/C(=N\NC(=O)CCC(=O)NCc1ccccc1)c1ccc(O)cc1	1.2	4.5	.	5.5%	-24	-17
Cc1cccc(-c2nc(CNC(=O)c3ccco3)cs2)c1	-0.2	-5.8	-8	-0.2%	9	-8
CCOc1ccccc1NC(=O)CSc1nnc(CNC(=O)COc2ccc(Cl)cc2)o1	-0.8	-3.2	11	1.4%	-3	-22
Cc1cc(C)cc(NC(=O)CSc2nnc(-c3cc(C)[nH]n3)n2N)c1	-0.3	-4.3	-5	-0.4%	-6	-3
C(#Cc1ccccc1)C[N+]1(CC#Cc2ccccc2)CCCCC1	-0.5	-4.9	-1	0.3%	10	-1
O=C(Nc1cccc(F)c1)c1cc(-c2ccco2)nc2ccccc12	-0.4	-3.9	.	2.6%	2	1
C[C@H]1CN=C(Nc2ccccc2)N1CC1CCCCC1	-0.2	-2.1	5	-0.6%	-10	0
O=S(=O)([N-]c1nc2ccccc2nc1-[n+]1ccc(CCCc2ccccc2)cc1)c1cccs1	-0.2	5.0	-3	0.7%	-6	-2
CC(C)Cc1ccc(S(=O)(=O)N2CCCC2)cc1	3.5	-0.5	31	3.6%[38.3 µM]	-12	14
Cc1ccc(C(=O)Nc2ccc(Nc3ccccc3)cc2)cc1Br	0.6	-3.3	-17	6.3%	-21	-24
O=S1(=O)N[C@H](Cc2ccccc2)COc2cc(N3CCSCC3)ccc21	-0.9	.	-4	-0.4%	.	-11
CCS(=O)(=O)NCCNc1ccc([N+](=O)[O-])cc1	-0.1	-3.8	5	3.9%	-5	-4
COc1ccc(-c2oc3c(OC)c(OC)c(OC)c(O)c3c(=O)c2OC)cc1OC	.	1.6	-20	2.1%	.	-21
CCOc1ccc(NC(c2ccccn2)c2oc(CO)cc(=O)c2O)cc1 (stereo not drawn)	-0.7	-1.6	-15	0.3%	-5	-26
CCN(C(=O)c1cnc(OC)cc1C(F)(F)F)c1ccc(Cl)cc1	1.2	-9.6	6	-0.7%	18	0
CCN(CC)S(=O)(=O)c1cccc(NC(=O)CNc2cccc(S(=O)(=O)N3CCOCC3)c2)c1	0.0	0.1	-1	0.3%	21	-6
CCOc1cc2[nH]c(=S)n(Cc3ccc(C(=O)NCCOC)cc3)c(=O)c2cc1OCC	0.8	-2.2	-3	25%	7	-1
CN(Cc1ccccc1)C(=O)c1ccc(CSc2nc3cccnc3n2Cc2ccccc2F)cc1	0.9	.	.	-0.7%	-17	.
O=C(CCC(=O)OCC(=O)c1ccc(Cl)cc1)Nc1ccc(Oc2ccccc2)cc1	0.9	.	.	-1.4%	-9	.
C#CCOCCOCCOCCNc1nc(N2CCOCC2)nc(N2CCN(C(=O)[C@H](CCC(=O)O)n3cc([C@@H](N)CCCCN)nn3)CC2)n1	0.3	-2.2	-6	-0.9%	14	6
O=C(NC1CCCC1)C(c1cccs1)N(C(=O)c1csnn1)c1ccccc1F (stereo not drawn)	-0.5	-0.1	4	6.4%	1	-4
CC[C@H](C)[C@@H]1NC(=O)c2cc([N+](=O)[O-])cc(F)c2NCCCC[C@@H](C(N)=O)NC(=O)[C@H](CC(N)=O)NC1=O	-0.6	-0.6	5	0.6%	-5	2
Cc1ncc(CO)c2c1Oc1nc(-c3ccccc3F)nc(SCC(=O)N3CCCCC3)c1C2	1.2	.	.	-0.6%	-6	.
COc1ccc(N2CC(C(=O)Nc3ccc(N4CCOCC4)cc3)CC2=O)cc1 (stereo not drawn)	4.7	6.8	-1	-2.2%	1	-2
Continuation:
SMILES	TRPML1 agonist	D2 ag	CtBP-E1A blk	PINK1 modulator	TRPML1 inh	Six1-Eya2 blk
O=S(=O)(c1cc(Cl)ccc1Cl)N1CCN(Cc2ccco2)CC1	-0.5	-6.2	-1	1.1%	-8	-2
Cc1ccc2nc(-c3ccccc3)c(NC(=O)c3ccco3)n2c1	0.6	-2.4	1	-0.9%	-19	-3
CCN1C(=O)[C@H]2[C@@H](c3ccc(C)cc3)N3C(=O)N(c4cccc(Cl)c4)C(=O)[C@@]3(CC(C)C)[C@H]2C1=O	1.6	-5.0	-26	3.4%	1	2
COc1ccc(NS(=O)(=O)c2cc(NC(=O)c3cccs3)ccc2N2CCOCC2)cc1	-0.6	-5.8	6	4.0%	7	-8
CC1(C)Cc2c(sc3c2C(=O)N(c2ccccc2)C2=NCCCN23)CO1	4.1	-0.7	3	13%[38.3 µM]	-7	-2
COc1cc(OC)c2c(-c3ccccc3)cc(=O)oc2c1C(CCN1CCCC(C)C1)c1ccc2c(c1)OCO2 (stereo not drawn)	-0.2&0.2	3.4	10	-1.0%	-6&9	-3
COCCN1C=C2C(=O)C(C)(OC(=O)C3CCCC3)C(=O)C=C2C=C1c1ccsc1 (stereo not drawn)	1.1	5.4	-23	-0.5%	8	-8
CC(=O)Nc1cccc(OCc2ccc(S(=O)(=O)Cc3ccccc3)cc2)c1	0.6	4.6	22	2.8%	-8	5
C=CCn1c(=S)[nH]c2sc3c(c2c1=O)CCCC3	.	3.2	.	0.0%	.	9

Looked up by compound from above (6):
SMILES	TRPML1 agonist	D2 ag	CtBP-E1A blk	PINK1 modulator	TRPML1 inh	Six1-Eya2 blk
COCCN1C=C2C(=O)C(C)(OC(=O)C3CCCC3)C(=O)C=C2C=C1c1ccsc1 (stereo not drawn)	1.1	5.4	-23	-0.5%	8	-8
COc1ccc(NS(=O)(=O)c2cc(NC(=O)c3cccs3)ccc2N2CCOCC2)cc1	-0.6	-5.8	6	4.0%	7	-8
COc1cc(OC)c2c(-c3ccccc3)cc(=O)oc2c1C(CCN1CCCC(C)C1)c1ccc2c(c1)OCO2 (stereo not drawn)	-0.2&0.2	3.4	10	-1.0%	-6&9	-3
CC(=O)Nc1cccc(OCc2ccc(S(=O)(=O)Cc3ccccc3)cc2)c1	0.6	4.6	22	2.8%	-8	5
Cc1ccc2nc(-c3ccccc3)c(NC(=O)c3ccco3)n2c1	0.6	-2.4	1	-0.9%	-19	-3
O=S(=O)(c1cc(Cl)ccc1Cl)N1CCN(Cc2ccco2)CC1	-0.5	-6.2	-1	1.1%	-8	-2
